# Ecoli growth – blocks Escherichia coli growth | OD600 absorbance (concentration not given with the values) | AID 1053175 | OD600, 23 h; stronger effect = lower value | actives 0.21% (n = 330,000);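 active = OD600 absorbance below the run mean of sample wells minus 3.6 SD, in any replicate, cut at about 0.56 in these data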;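 also: stock transfer was 300 nL into about 60 µL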
# rRNA inh HTS – inhibits bacterial ribosomal RNA function over humanized ribosomes. E. coli WT GFP vs humanized-ribosome RFP mutants, fluorescence, 24 h; stronger effect = lower value; DMSO median 0, no signal -100. GFP signal change (wild-type ribosome), % (test concentration not listed). actives 1.6% (n = 350,000). AID 720706;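 active = significant combined selectivity score with lowered wild-type GFP, culture density cut under 30%, mutant RFP and density less affected; inactive = any of these conditions unmet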; also: one replicate is shown; some compounds called inactive have numbers as strong as hits
# ALR inh – human ALR oxidase inhibition via reduced H2O2; purified ALR, DTT oxidation, H2O2 HRP-luminol luminescence; inhibition, % (no concentration beside the values); actives 3.8% (n = 290,000); AID 485317;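 active = mean and each replicate at 75% or more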;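 also: stock transfer was 7.5 nL into about 7.5 µL; 0% = neutral wells and 100% = wells with inactivated enzyme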
# Target sequence (P55789 whole entry, looked up): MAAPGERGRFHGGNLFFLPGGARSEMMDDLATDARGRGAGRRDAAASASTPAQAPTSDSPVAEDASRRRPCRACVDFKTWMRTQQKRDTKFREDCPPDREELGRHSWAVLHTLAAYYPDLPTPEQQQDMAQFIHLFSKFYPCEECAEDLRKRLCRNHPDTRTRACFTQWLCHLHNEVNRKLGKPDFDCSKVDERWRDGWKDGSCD
# Vif TR-FRET – HIV-1 Vif–A3G interaction blockers – biochemical, TR-FRET, GST-Vif 1-94, biotin-A3G peptide, dose response retest, primary screen (AID 1117319) | actives 0.57% (n = 260,000) | TR-FRET GST-Vif / biotin-A3G peptide binding; higher % means a stronger effect; test concentration not given here; strong numbers were not always called active | one-dose inhibition, %; IC50 in µM for titrated hits;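 active = above the screen mean plus three standard deviations and confirmed in dose response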;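 also: Vif residues 1-94 fused to GST binding biotinylated APOBEC3G peptide 110-148; 0% = full assay without inhibitor and 100% = GST in place of GST-Vif; retest series ran down from 100 µM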
# HNF4A DNA FP – change in binding of human HNF4 alpha to DNA; HNF4a-FITC DNA binding, fluorescence polarization, 1 h; actives 0.3% (n = 360,000); P41235; activity change, % at 10 µM; in the data active = activity change above about 30%, passing the limit was not always enough;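 also: controls were the assay level and a saturating level of protein; the project sought stronger binding though the title names inhibitors; some compounds called inactive have numbers as strong as hits; positive values seem to mean higher polarization but the record does not say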
# FGF22 binding – shifts melting point of recombinant human FGF22; Q9HCT0; calls only at 9.99 µM; actives 1.5% (n = 340,000); AID 651658; recombinant FGF22 thermal shift, SYPRO orange fluorescence; percent of sucrose octasulfate shift, DMSO zero;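 active = melting point raised past a set limit in the mean and every replicate; three in four hits are not shown here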
# Target sequence (Q9HCT0 whole entry, looked up): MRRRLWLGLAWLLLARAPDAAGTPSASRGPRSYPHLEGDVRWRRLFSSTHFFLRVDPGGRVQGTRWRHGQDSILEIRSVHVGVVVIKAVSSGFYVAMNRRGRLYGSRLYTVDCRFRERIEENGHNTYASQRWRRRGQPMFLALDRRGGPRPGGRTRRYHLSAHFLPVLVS
# MLL AF4-AF9 inh – inhibitors of human MLL-AF4/AF9 interaction. inhibition, % at 10 µM. AlphaScreen, biotin-AF4 peptide binding to FLAG-AF9. actives 0.47% (n = 350,000). AID 651704;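 active = every replicate reaching a set inhibition limit, whatever the replicate mean, cut at about 25% in these data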;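 also: 0% = plate neutral control median and 100% = total signal loss; the record names both 10 and 1 µM as test concentration; the first replicate is given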
# Target sequence (P42568 whole entry, looked up): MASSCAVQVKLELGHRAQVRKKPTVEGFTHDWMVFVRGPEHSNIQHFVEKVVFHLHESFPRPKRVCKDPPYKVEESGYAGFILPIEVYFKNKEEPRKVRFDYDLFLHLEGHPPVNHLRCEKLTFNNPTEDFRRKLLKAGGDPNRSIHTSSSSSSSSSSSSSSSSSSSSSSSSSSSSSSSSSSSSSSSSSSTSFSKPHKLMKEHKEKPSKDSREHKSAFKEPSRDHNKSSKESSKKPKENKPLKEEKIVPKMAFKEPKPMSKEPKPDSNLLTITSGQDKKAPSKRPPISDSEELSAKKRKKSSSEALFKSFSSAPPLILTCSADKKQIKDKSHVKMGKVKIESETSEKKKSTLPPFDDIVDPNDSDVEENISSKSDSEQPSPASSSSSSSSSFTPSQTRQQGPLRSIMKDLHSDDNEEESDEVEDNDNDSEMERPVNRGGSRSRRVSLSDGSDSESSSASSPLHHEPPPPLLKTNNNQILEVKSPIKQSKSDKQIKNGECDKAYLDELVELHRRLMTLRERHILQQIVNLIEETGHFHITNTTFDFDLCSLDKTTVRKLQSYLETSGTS
# rRNA inh HTS OD600 – also measured in rRNA inh HTS; calls as there; OD600 change, %; measured here: OD600 growth;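 optical density of the mix in the first replicate; 0 = DMSO median and -100 = no signal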
# rRNA inh HTS RFP – further read-out of rRNA inh HTS, marked with its call; RFP signal change, %; measured here: RFP humanized mutant strains;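 first replicate; 0 = DMSO median and -100 = no signal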
# Numbers without * were called inactive; i = inactive; . = not tested or not shown; & = joins results of further samples.
Ecoli growth,rRNA inh HTS,rRNA inh HTS OD600,rRNA inh HTS RFP,ALR inh,Vif TR-FRET,HNF4A DNA FP,FGF22 binding,MLL AF4-AF9 inh,canonical_smiles
0.655,4.1,-7.4,-1.8,-3.3,.,-4.8,i,-2.2,O=C(O)C(C(=O)O)=C1C2CC3CC(C2)CC1C3
.,1.9,0.4,-5.4,.,.,.,i,-5.0,C[C@H](CO)N1C[C@H](C)[C@@H](CN(C)C(=O)CN2CCOCC2)Oc2ncc(C#C[C@@H](C)O)cc2C1=O
0.647,.,.,.,-36.6,.,-3.0,.,.,Cn1c(=O)c(/C=C/c2ccccc2)nc2ccccc21
0.734,.,.,.,94.0*,.,14.2,i,-8.5,COc1cc(SC#N)ccc1N=Cc1c(C)[nH]n(-c2ccc(C)c(C)c2)c1=O
0.685,-5.6,-3.3,-1.1,-12.0,-5.7%,0.4,i,-24.4,Clc1ccccc1OCCn1nnc2ccccc21
0.65,3.9,4.6,-0.6,-0.8,4.6%,2.2,i,-1.3,Cc1ccc2nsnc2c1NC(=O)c1cccnc1Cl
0.657,18.6,20.9,5.4,0.2,.,2.2,i,-34.7,N/C(=N\NC(=O)c1cccc(F)c1)c1cc2ccccc2oc1=O
0.739,3.4,0.9,0.2,1.3,-15.7%,1.7,i,1.8,Cc1cc(C)nc(SCC(=O)Nc2ncc(Cc3cccc(Cl)c3)s2)n1
0.679,2.6,1.0,-1.3,16.9,-10.3%,2.0,i,-3.5,CCCCc1ccc(NC(=S)NCCN2CCOCC2)cc1
.,0.1,-1.5,-2.2,.,.,-1.8,i,-0.9,O=C(NCCc1ccccc1)c1ccc(NC(=O)C2CCC2)cc1

# By substructure: the compounds so far with a Cl atom (3)
Ecoli growth,rRNA inh HTS,rRNA inh HTS OD600,rRNA inh HTS RFP,ALR inh,Vif TR-FRET,HNF4A DNA FP,FGF22 binding,MLL AF4-AF9 inh,canonical_smiles
0.685,-5.6,-3.3,-1.1,-12.0,-5.7%,0.4,i,-24.4,Clc1ccccc1OCCn1nnc2ccccc21
0.65,3.9,4.6,-0.6,-0.8,4.6%,2.2,i,-1.3,Cc1ccc2nsnc2c1NC(=O)c1cccnc1Cl
0.739,3.4,0.9,0.2,1.3,-15.7%,1.7,i,1.8,Cc1cc(C)nc(SCC(=O)Nc2ncc(Cc3cccc(Cl)c3)s2)n1

# The results go on.
Ecoli growth,rRNA inh HTS,rRNA inh HTS OD600,rRNA inh HTS RFP,ALR inh,Vif TR-FRET,HNF4A DNA FP,FGF22 binding,MLL AF4-AF9 inh,canonical_smiles
0.66,.,.,.,-8.3,-1.8%,1.6,.,.,CC(=O)Nc1cccc(NC(=O)c2c(-c3ccccc3Cl)noc2C)c1
0.63,14.6,3.0,0.1,-1.8,-4.0%,5.7,i,5.5,COc1ccc(N2C(=O)CC(NNC(=O)c3cccnc3)C2=O)cc1 (stereo not drawn)
0.688,-1.8,3.5,-0.2,.,0.7%,0.6,i,-13.8,COc1ccccc1NC(=O)COC(=O)CCC(=O)c1cccs1
0.704,-15.6,-10.2,1.2,-8.1,.,2.0,i,3.2,Cc1onc(-c2ccccc2)c1C(=O)NC(C)c1ccc2c(c1)OCO2 (stereo not drawn)
0.729,8.7,7.7,-9.1,.,17.4%,0.0,i,-1.2,Cc1ccc(C)c(N2CC(O)(c3cccs3)[N+]3=C2CCCC3)c1 (stereo not drawn)
.,1.3,8.8,0.2,-7.0,-8.4%,-1.6,i,-5.0,COc1cccc(/C=N/NC(=S)NC2CC3CCC2C3)c1OC (stereo not drawn)
0.66,9.9,23.4,0.4,-9.5,-1.0%,2.4,.,.,CC1CCN(CCCNC(=O)COc2cc(=O)n(C)c3ccccc23)CC1
.,-0.3,-4.6,-2.0,.,.,.,i,-3.1,CCCC(=O)Nc1ccc2c(c1)OC[C@H](C)N(CCC(F)(F)F)C[C@H](C)[C@@H](OC)CN(C)C2=O
0.686,5.3,7.6,-1.5,1.6,.,4.7,i,10.9,Cc1ccc(N(C(=O)CNC(=O)c2ccco2)C(C(=O)NC2CCCCC2)c2cccnc2)cc1C (stereo not drawn)
.,-17.8,-14.8,3.3,.,-0.9%,-1.3,i,-1.9,CCN(CC)C(=O)C1=C(C)N(Cc2ccc(C(C)(C)C)cc2)C(=O)C(CC(=O)NCC2CCCCC2)C1 (stereo not drawn)
.,.,.,.,-6.5,-0.5%,18.6,.,.,CCOC(=O)c1c(/N=C/N(C)C)sc(/C=N/Nc2ccccc2)c1-c1ccccc1
0.75,.,.,.,33.5,-6.1%,3.3,.,.,O=C(CCl)Nc1ccccc1Sc1ccc(Cl)cc1
0.661,-2.7,8.1,-3.1,3.5,11.2%,-0.9,i,3.2,O=C(Nc1ccccc1F)c1ccc(CN2CCN(c3ccccc3)CC2)cc1
0.652,-3.2,-10.1,4.5,-7.9,-6.5%,4.6,i,-1.1,COc1ccccc1CNC(=O)CS(=O)(=O)c1ccc(C)cc1
.,16.5,10.1,8.7,51.6,1.5%,5.4,i,2.4,Oc1cccc(/C=N/Nc2nn3cnnc3c3ccccc23)c1
.,1.2,-2.2,-1.0,.,.,.,i,2.7,O=C(Nc1ccccc1F)N1[C@@H](CO)[C@@H]2c3ccccc3NC[C@@H]21
0.702,.,.,.,-3.7,-18.2%&-13.3%,-0.8,.,.,COC(=O)C1=CN(C(C)C)C=C(C(=O)OC)C1c1cc2c(cc1Br)OCO2
0.65,-11.4,-12.8,-1.9,-0.8,.,8.8,i,-1.3,O=C(COC(=O)CC1CCCC1)Nc1ccc(Cl)cn1
.,19.1,23.5,3.4,39.9,17.5%,-0.2,.,-0.6,O=C1CCC/C(=N\NC(=O)NC2CCCCC2)C1
0.723,.,.,.,-2.6,.,-4.5,.,.,CCc1nnc(NC(=O)CSc2nnc(CSc3nc(C)cc(C)n3)o2)s1
.,-61.7,-74.7,-15.8,.,.,1.7,i,0.0,Cc1ccc(C(NC(=O)C2CCN(CCOc3ccc(Cl)cc3Cl)CC2)c2ccccn2)cc1 (stereo not drawn)
.,0.8,0.7,-1.6,.,.,.,i,-19.2,C[C@@H]1CN([C@H](C)CO)C(=O)Cc2cc(NS(=O)(=O)c3ccccc3)ccc2O[C@H]1CN(C)C(=O)Nc1ccc(C(F)(F)F)cc1
.,-0.8,-2.7,-1.0,.,.,.,i,-0.1,O=C(C[C@H]1C=C[C@H](NS(=O)(=O)c2ccc(F)cc2)[C@@H](CO)O1)NC1CCCCC1
.,-5.8,-6.9,-0.3,.,.,1.7,i,0.7,COc1ccc(Cl)cc1Cn1c(C)c(C(=O)NCc2cccc(Cl)c2)sc1=O
0.681,.,.,.,-4.5,24.1%,2.7,.,.,COc1ccc2nc(SCc3cccnc3)c(C#N)cc2c1
.,5.0,11.3,6.0,.,.,.,i,-0.5,C[C@@H]1CN([C@H](C)CO)C(=O)Cc2cc(NS(C)(=O)=O)ccc2O[C@H]1CN(C)C(=O)Nc1cccc2ccccc12
.,1.7,5.1,-1.9,.,.,.,i,-2.6,C[C@H]1CN([C@@H](C)CO)C(=O)c2cc(N(C)C)ccc2O[C@@H]1CN(C)Cc1ccncc1
.,9.0,7.9,2.3,.,.,5.8,i,-2.4,COc1ccc(CNC(=O)[C@@H](Cc2ccccc2)NC(=O)CC[C@H]2O[C@@H](n3ccc(=O)[nH]c3=O)[C@H](O)[C@@H]2O)cc1
0.677,2.1,7.4,1.7,-9.6,-8.8%,3.7,i,-6.2,Cc1ccc(CNC(=O)CN(C)C2=NS(=O)(=O)c3ccccc32)cc1
.,-2.6,-6.1,0.7,.,.,.,i,0.7,C[C@@H]1CCCCO[C@H](CN(C)S(=O)(=O)c2cccs2)[C@@H](C)CN([C@@H](C)CO)C(=O)c2cc(NC(=O)c3ccncc3)ccc2O1
0.672,-10.8,-34.9,-1.5,-40.2,.,-0.1,i,-5.5,OC[C@H]1O[C@@H](Oc2ccc3cc(Br)ccc3c2)[C@H](O)[C@@H](O)[C@H]1O
0.661,-1.2,-19.9,13.3,-12.0,-1.4%,1.7,i,27.3*,COc1ccc(C(CCN2CCCC(C)C2)c2c(OC)cc(OC)c3c(-c4ccccc4)cc(=O)oc23)cc1 (stereo not drawn)
0.679,.,.,.,0.2,30.0%,-1.4,.,.,CCOc1cc(-c2conc2N)cc(OCC)c1OCC
0.68,-1.3,-3.7,0.3,3.6,11.9%,1.4,i,1.7,CCCCOc1ccc(C2/C(=C(/O)c3ccc4c(c3)CC(C)O4)C(=O)C(=O)N2CCCN2CCOCC2)cc1OC (stereo not drawn)
.,0.4,6.8,2.0,.,.,.,i,-1.0,CC(=O)N(C)C[C@@H]1Oc2ncc(/C=C/c3ccccc3)cc2C(=O)N([C@H](C)CO)C[C@H]1C
.,-6.3,-11.1,4.3,.,.,.,i,-1.4,COCC#Cc1ccc2c(c1)O[C@@H](CN(C)S(=O)(=O)c1ccc(F)cc1)[C@@H](C)CN([C@@H](C)CO)S2(=O)=O
0.675,1.9,2.3,5.8,3.7,.,-2.5,i,5.9,CC(C)[C@@H](C(=O)N1CCN(Cc2ccc3c(c2)OCO3)CC1)n1nnc2ccccc2c1=O
.,4.5,5.7,-2.8,99.5*,3.3%,3.8,i,0.1,O=C(N/N=C/c1ccc(O)cc1)c1cncc(Br)c1
0.547,-59.3,-79.9,-20.6,.,6.7%,-4.6,i,-3.1,CC(=O)Nc1ccc(Sc2ccc([N+](=O)[O-])o2)cc1
.,-7.1,-5.1,-0.8,.,.,.,i,-2.4,COCC(=O)N(C)C[C@@H]1Oc2cc(-c3cccc(F)c3)ccc2S(=O)(=O)N([C@@H](C)CO)C[C@@H]1C
.,-3.8,-9.3,8.4,.,.,.,i,2.7,CN(C[C@@H]1N[C@H](CO)[C@@H]1c1ccc(-c2cccc(F)c2)cc1)C(=O)C1CCC1
.,-0.2,-4.6,-4.1,.,.,16.1,i,-0.4,CCN(C)C1CN(Cc2cn(Cc3cc(C)cc(C)c3)nn2)S(=O)(=O)C1 (stereo not drawn)
0.639,-4.0,-5.3,0.4,-3.4,.,0.6,i,-1.0,Cc1ccc(S(=O)(=O)N(OCc2ccccc2)C(C)C(=O)O)cc1 (stereo not drawn)
.,0.6,9.7,-4.7,95.3*,14.7%,2.8,i,3.3,CCN1C(=O)/C(=C\c2ccc(F)cc2)N=C1SCC(=O)NCc1ccco1
.,-0.2,6.8,-0.1,.,.,.,i,35.6*,COc1ccc2c3c(n(C)c2c1)[C@H](CO)NCC31CN(Cc2ccc(F)cc2)C1
0.614,2.8,3.4,-1.9,26.8,.,0.6,i,-1.7,O=C(O)/C=C/C(=O)NCCc1ccc(Cl)cc1
0.689,.,.,.,-4.9,1.0%,3.2,.,.,O=S(=O)(Nc1cccc2cccnc12)c1ccc(S(=O)(=O)N2CCCC2)cc1
.,0.5,-4.6,-0.5,.,.,.,i,0.1,CCCC#Cc1cnc2c(c1)C(=O)N([C@H](C)CO)C[C@@H](C)[C@@H](CN(C)S(=O)(=O)c1cccc(OC)c1)O2
.,-4.1&-1.5,7.7&-2.9,-5.3&0.1,.,.,5.4,i,-0.9&-0.8&-0.4,COc1ccc(S(=O)(=O)N(C)C[C@@H]2OCc3cnnn3CCCC(=O)N([C@@H](C)CO)C[C@H]2C)cc1
0.653,0.5,1.5,4.6,-3.7,9.8%,1.9,i,0.9,COc1ccc(OC)c(NC(=O)C2CC(=O)N(CCc3ccccc3)C2)c1 (stereo not drawn)
0.72,.,.,.,51.0,4.1%,-0.1,.,.,CCOC(=O)c1cnc2ccc(C)cc2c1Sc1ccc(F)cc1
0.649,.,.,.,.,-8.4%,2.0,.,.,CCn1c(Cc2ccccc2)nnc1SCC(=O)Nc1ccc(C)cc1

# Not all compounds are listed. The share of hits here may be higher or lower than overall.
